GIV Gai3 FP: inhibitors of GIV GBA-motif binding to rat Galpha-i3; P08753; Galpha-i3/FITC-GIV peptide fluorescence polarization, 90 min; hits give low values; scaled: aluminum fluoride 0%, vehicle 100%; percent of control (FP), % (no concentration beside the values); 210,000 compounds, 0.42% hits; AID 1224905;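 active = replicate mean at 85% of control or lower, very high polarization wells dropped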;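 also: wells of about 15 µL received 100 nL stock; the first replicate is given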
Target sequence (P08753 whole entry, looked up): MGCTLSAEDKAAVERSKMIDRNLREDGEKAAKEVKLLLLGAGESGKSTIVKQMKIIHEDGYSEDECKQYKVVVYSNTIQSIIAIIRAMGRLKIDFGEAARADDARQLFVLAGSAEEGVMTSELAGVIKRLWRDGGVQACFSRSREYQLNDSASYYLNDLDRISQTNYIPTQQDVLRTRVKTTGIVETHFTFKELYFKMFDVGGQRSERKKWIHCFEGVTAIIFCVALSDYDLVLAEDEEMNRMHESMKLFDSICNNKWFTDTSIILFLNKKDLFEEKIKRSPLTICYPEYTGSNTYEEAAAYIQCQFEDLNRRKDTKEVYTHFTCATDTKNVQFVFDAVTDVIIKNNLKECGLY
* marks the source's active call; other numbers are inactive results. These rows are one share of the data; the hit share may differ from the screen's.

SMILES	GIV Gai3 FP
C=CC(=O)N1c2c(OC)cccc2C2=C(SC(C(=O)OC)=C(C(=O)OC)C23SC(C(=O)OC)=C(C(=O)OC)S3)C1(C)C	101
CC(=O)c1cc2c(cc1NC(=O)c1cnn3c(C(F)(F)F)cc(-c4ccc(C)cc4)nc13)OCO2	105
O=C(CC1CCN(C(=O)c2cn(-c3ccccc3)nc2-c2ccccc2)CC1)N1CCCCC1	103
CCCS(=O)(=O)c1c(S(=O)(=O)CCC)c2ccccn2c1C(=O)N/N=C/C(C)C	106
O=S(=O)(NC1CCCCC1)c1cc(-c2noc(C3CCCC3)n2)cs1	97
C=CCNc1nc(Nc2ccc(Cl)cc2)c2cnn(-c3ccccc3)c2n1	104
Cc1csc(-c2cc(S(=O)(=O)NCCCN3CCc4ccccc4C3)c(C)s2)n1	98
COc1cccc(C2C(N3C(=O)c4ccccc4C3=O)C(=O)N2c2ccc(Br)cc2)c1 (centres undefined)	114
CCOCCCN(C1CCN(C(C)=O)CC1)S(=O)(=O)c1cc2c(cc1Cl)NC(=O)CO2	135
Cc1ccccc1-c1noc2ncnc(NC3CCCC3)c12	107
COc1ccc(-c2nc(-c3ccc(-c4ccccc4)cc3)c(-c3ccc(-c4ccccc4)cc3)[nH]2)cc1	105
Nc1ccc(-c2cnc3ccccc3n2)cc1	132
CCCC(=O)NC(C)(C)c1nc2c(c(C(=O)NC)n1)OCO2	105
O=C(NCCN1CCOCC1)C1CCN(c2cnc(N3CCSCC3)nc2)CC1	101
Cc1ccc(C2N(c3ccc(Br)cc3)C(=O)CS2(=O)=O)cc1 (centres undefined)	115
CCC(C)NC(=O)c1ccc(N2CC3CC(C2)c2cccc(=O)n2C3)c(NC(=O)c2cc(OC)c(OC)c(OC)c2)c1 (centres undefined)	111
CNC(=O)N1c2ccccc2NC2=C(C(=O)CC(C)(C)C2)C1c1ccccc1OC (centres undefined)	99
Nc1c(C(=O)Nc2ccc(Br)cc2)sc2nc3c(c(-c4ccco4)c12)CCCC3	108
COc1ccc2c(c1)NC1(CCN(C(=O)NC3CCCC3)CC1)c1cccn1-2	106
COc1cccc(C2C(N3C(=O)c4ccccc4C3=O)C(=O)N2c2ccc(C)cc2C)c1 (centres undefined)	106
COc1ccc(OC)c(C2CC(=O)Nc3c2cnn3-c2nc3ccccc3s2)c1 (centres undefined)	102
Cc1ccc(-c2nnc(-c3nc(N4CCc5ccccc54)c4ccccc4n3)o2)cc1	102
CC(C)c1ccc(NC(=O)Cn2nc3c4sccc4ncn3c2=O)cc1	104
CCOC(=O)c1c(S(=O)(=O)N2CCCC(C(=O)NCc3nc4ccc(C)cc4[nH]3)C2)c(C)n(C)c1C (centres undefined)	109
CCNC(=O)N1c2ccccc2C(C)(c2ccccc2)CC1(C)C (centres undefined)	108
(continued)
SMILES	GIV Gai3 FP
Cc1cc(-n2c(SCC(=O)Nc3ccc(Br)cc3)nc3n[nH]c(C)c3c2=N)ccc1Cl	112
O=C(CSc1nc2ccccc2n1S(=O)(=O)c1cccc([N+](=O)[O-])c1)Nc1ccc(Br)cc1F	99
c1ccc(-c2ccc(-c3nc4ccc(Cc5ccc6nc(-c7ccc(-c8ccccc8)cc7)c(-c7ccccc7)nc6c5)cc4nc3-c3ccccc3)cc2)cc1	114
Cc1c(C(c2ccc(N(C)C)cc2)c2c(C)n(C)n(-c3ccccc3)c2=O)c(=O)n(-c2ccccc2)n1C	108
O=S(=O)(Nc1ccc(F)cc1)c1ccccc1-c1nc(-c2ccccc2)no1	103
CC1=C(C(=O)OC2CCCC2)C(c2ccc(C)c([N+](=O)[O-])c2)C2=C(CC(c3cccs3)CC2=O)N1 (centres undefined)	121
CCCN1CCN(C(=O)c2sc3ncnc(N4CCc5ccccc5C4)c3c2C)CC1	107
O=C(NCc1ccc2c(c1)OCO2)C1CCN(c2ncnc3onc(-c4cccc(F)c4)c23)CC1	100
Cc1nnc(NC(=O)CSc2nnc3ccc(-c4ccncc4)nn23)s1	106
CC(C)(C)C(=O)Nc1ccccc1SCc1nnc(-c2ccccc2)o1	103
Cc1c(C(=O)Nc2ccc(Oc3ccc(Cl)cc3)cc2)sc2ncn(CC(=O)N3CCCC(C)C3)c(=O)c12 (centres undefined)	111
N#CC1=C(N)N(c2cccc(C(F)(F)F)c2)C2=C(C(=O)CCC2)C1c1ccc2c(c1)OCO2 (centres undefined)	108
Clc1ccc(C2Nc3ccccc3C(c3ccccc3)(c3ccccc3)O2)cc1Cl (centres undefined)	105
CCCCNc1nc(SCC(=O)NCc2ccco2)nc2ccccc12	117
O=C(CSc1nccnc1N1CCSCC1)Nc1ccc2c(c1)OCO2	103
O=C(NC1CCCC1)N1CCC(N2CCN(Cc3ccccc3)C(=O)C2=O)CC1	99
Cc1cccc(Nc2nc3nonc3nc2N2CCC(C)CC2)c1C	104
Clc1cccc(-c2csc(Cc3nc(-c4ccc5c(c4)OCO5)no3)n2)c1	115
COc1ccccc1-c1c(C)[nH]n2c(=O)cc(C)nc12	101
CC(C)(C)c1cc(C(N2CCCCC2)P(=O)(c2ccccc2)c2ccccc2)cc(C(C)(C)C)c1O (centres undefined)	108
COC(=O)C1C(=O)NC(SCC(=O)Nc2ccc(C(C)=O)cc2)=C(C#N)C1c1ccc(Cl)cc1 (centres undefined)	101
Cc1cccc(C(=O)N2CCc3c([nH]c4ccccc34)C2c2ccccc2)c1 (centres undefined)	118
CC1(C)Nc2ccccc2-c2c1ssc2=Nc1cccc(NC(=O)c2ccccc2)c1	107
COc1cc(-c2ccno2)ccc1S(=O)(=O)N1CCCC1	105
COc1ccc(C(=O)CSc2n[nH]c(-c3ccco3)n2)cc1C	101

Three of the compounds above, with the structure last.
| GIV Gai3 FP | structure |
| --- | --- |
| 107 | CCCN1CCN(C(=O)c2sc3ncnc(N4CCc5ccccc5C4)c3c2C)CC1 |
| 100 | O=C(NCc1ccc2c(c1)OCO2)C1CCN(c2ncnc3onc(-c4cccc(F)c4)c23)CC1 |
| 106 | Cc1nnc(NC(=O)CSc2nnc3ccc(-c4ccncc4)nn23)s1 |

(more compounds)
SMILES	GIV Gai3 FP
O=C(CSc1nc2c(c(=O)n1-c1ccc(F)cc1)SCC2)N1CCC(Cc2ccccc2)CC1	102
CCOc1cc(C2CC(=O)Nc3c2ccc2ccccc32)ccc1OC(=O)C1CCCCC1 (centres undefined)	108
COCCCNC(=O)C1CCN(c2ncnc3c2oc2ccccc23)CC1	103
CCc1cc(Sc2ccc(NC(=O)c3ccc(OC)c(OC)c3)cc2)n2ncnc2n1	99
Cc1ccc(C)c(S(=O)(=O)Nc2ccc3nnc(-c4ccccc4)n3n2)c1	109
Cc1ccc(F)cc1N1C(=O)CSC1c1ccc(Cl)cc1 (centres undefined)	105
Cc1ccc(NC(=O)c2ccc(F)c(S(=O)(=O)N3CCN(c4cccc(Cl)c4)CC3)c2)cc1F	123
O=C(O)c1ccc2c(c1)N(Cc1ccccc1)C(=O)c1ccccc1S2	101
COc1ccc(/C=C2\C=C(c3ccccc3)N(c3ccccc3Br)C2=O)cc1	112
Cc1ccc(C2CC(=O)Nc3c2c(C)nn3-c2ccc3nnc(C)n3n2)cc1C (centres undefined)	182
COc1ccc(C2C(C#N)=C(N)Oc3n[nH]c(-c4ccc(Br)cc4)c32)cc1O (centres undefined)	100
CCOC(=O)c1c(CN2CCN(CC#N)CC2)n(C)c2cc(Br)c(OC)cc12	101
O=C(NCCN1CCCC1)c1ccc(Cn2c(=S)[nH]c3ccc(Br)cc3c2=O)cc1	116
CCc1cc(C2CCCN2C(=O)NC2CCCCC2)on1 (centres undefined)	103
Cc1sc2nc(SCC(=O)NC(C)(C)C)n(-c3ccccc3)c(=O)c2c1C	121
CCOC(=O)C1=C(O)/C(=C/c2ccc(N(C)C)cc2)SC1=Nc1cccc(Cl)c1	189
CSc1nc2ccc(NC(=O)CSCC(=O)Nc3ccc4ccccc4c3)cc2s1	110
Cc1cccc(NC(=O)CSc2ccnc(=O)[nH]2)c1C	103
COc1cc(C2C(C#N)=C(N)Oc3n[nH]c(-c4cccc([N+](=O)[O-])c4)c32)cc(OC)c1O (centres undefined)	96
O=S(=O)(c1cccnc1)N1CCn2cccc2C1c1ccc(F)cc1 (centres undefined)	103
O=C1NC(=S)NC(=O)C1=Cc1ccc(Oc2ccc([N+](=O)[O-])cc2[N+](=O)[O-])cc1	107
O=C1c2[nH]nc(-c3ccccc3)c2C(c2ccc([N+](=O)[O-])cc2)N1c1cccc(C(F)(F)F)c1 (centres undefined)	114
COc1ccc(CSc2nnc3c(S(=O)(=O)N4CCCCC4)cccn23)cc1	102
O=CC12c3ccccc3C(c3ccccc31)C1C(=O)N(c3ccc(F)cc3)C(=O)C12 (centres undefined)	113
Cc1cnc(NC(=O)c2c(O)c3c(n(CC(C)C)c2=O)CCCC3)s1	114
Further results
SMILES	GIV Gai3 FP
COc1ccc(-c2cc(Oc3cccc(C(=O)NCc4ccc5c(c4)OCO5)c3)ncn2)cc1	102
COc1ccc(NS(=O)(=O)c2cc(-c3nc(-c4ccccc4)no3)sc2C)cc1OC	109
CCN1/C(=C2/SC(=S)N(Cc3ccccc3)C2=O)Sc2ccc(Cl)cc21	104
Cc1cc(S(=O)(=O)n2nnc3ccccc32)c(C)cc1Br	101
CC(C)CCNC(=O)CSc1nc(N2CCc3ccccc3C2)nc2ccccc12	109
COc1ccc(OCC(=O)Nc2nc3ccc(S(=O)(=O)N4CCCCC4)cc3s2)cc1	99
COc1ccc(N2CCN(C(=O)c3cccnc3SCc3ccc(C(F)(F)F)cc3)CC2)cc1	107
CC(=O)N1c2ccccc2NC2=C(C(=O)CC(c3ccc(Cl)c(Cl)c3)C2)C1c1cccnc1 (centres undefined)	101
Cc1ccc(-n2ccc(=O)c(-c3nc(-c4ccccc4)no3)n2)cc1	99
O=C(Nc1ccc(N2S(=O)(=O)c3ccccc3S2(=O)=O)cc1)c1ccco1	101
Cc1ccc(Nc2nc3nonc3nc2Nc2ccccc2F)cc1	101
COCCn1c(SCC(C)C)nc2c(-c3ccccc3)cn(C)c2c1=O	102
CCCn1cnc2c(-c3cccc(F)c3)csc2c1=O	105
Cc1cc2c(cc1C)N(C(=O)CN1C(=O)c3ccccc3C1=O)C(C)(C)c1ssc(=S)c1-2	110
CCOc1ccc(-c2nn(-c3ccccc3)cc2/C=C2\SC(=S)N(CCCC(=O)O)C2=O)cc1[N+](=O)[O-]	138
CCOC(=O)c1sc(NC(=O)C(CC)Sc2nccn2C)nc1C (centres undefined)	113
COc1ccccc1N1CCN(C(=O)c2cnn3c(C)c(Cc4cccc(Cl)c4)c(C)nc23)CC1	104

Gathered by group, the compounds so far with fluorine.
SMILES	GIV Gai3 FP
CC(=O)c1cc2c(cc1NC(=O)c1cnn3c(C(F)(F)F)cc(-c4ccc(C)cc4)nc13)OCO2	105
O=C(CSc1nc2ccccc2n1S(=O)(=O)c1cccc([N+](=O)[O-])c1)Nc1ccc(Br)cc1F	99
O=S(=O)(Nc1ccc(F)cc1)c1ccccc1-c1nc(-c2ccccc2)no1	103
O=C(NCc1ccc2c(c1)OCO2)C1CCN(c2ncnc3onc(-c4cccc(F)c4)c23)CC1	100
N#CC1=C(N)N(c2cccc(C(F)(F)F)c2)C2=C(C(=O)CCC2)C1c1ccc2c(c1)OCO2 (centres undefined)	108
O=C(CSc1nc2c(c(=O)n1-c1ccc(F)cc1)SCC2)N1CCC(Cc2ccccc2)CC1	102
Cc1ccc(F)cc1N1C(=O)CSC1c1ccc(Cl)cc1 (centres undefined)	105
Cc1ccc(NC(=O)c2ccc(F)c(S(=O)(=O)N3CCN(c4cccc(Cl)c4)CC3)c2)cc1F	123
O=S(=O)(c1cccnc1)N1CCn2cccc2C1c1ccc(F)cc1 (centres undefined)	103
O=C1c2[nH]nc(-c3ccccc3)c2C(c2ccc([N+](=O)[O-])cc2)N1c1cccc(C(F)(F)F)c1 (centres undefined)	114
O=CC12c3ccccc3C(c3ccccc31)C1C(=O)N(c3ccc(F)cc3)C(=O)C12 (centres undefined)	113
COc1ccc(N2CCN(C(=O)c3cccnc3SCc3ccc(C(F)(F)F)cc3)CC2)cc1	107
Cc1ccc(Nc2nc3nonc3nc2Nc2ccccc2F)cc1	101
CCCn1cnc2c(-c3cccc(F)c3)csc2c1=O	105

Compound activity (PubChem)
